UCH37 DUB inh: human UCH37 deubiquitinating enzyme inhibition. Q9Y5K5. purified proteasome/UCH37, Ub-AMC cleavage fluorescence. inhibition, % (no concentration beside the values). 330,000 tested, 0.33% active;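 active = mean of two replicates above 20%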;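 also: 0% = compound-free wells with enzyme and 100% = wells lacking proteasome; stock transfer was 100 nL into about 20 µL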
Target sequence (Q9Y5K5 whole entry, looked up): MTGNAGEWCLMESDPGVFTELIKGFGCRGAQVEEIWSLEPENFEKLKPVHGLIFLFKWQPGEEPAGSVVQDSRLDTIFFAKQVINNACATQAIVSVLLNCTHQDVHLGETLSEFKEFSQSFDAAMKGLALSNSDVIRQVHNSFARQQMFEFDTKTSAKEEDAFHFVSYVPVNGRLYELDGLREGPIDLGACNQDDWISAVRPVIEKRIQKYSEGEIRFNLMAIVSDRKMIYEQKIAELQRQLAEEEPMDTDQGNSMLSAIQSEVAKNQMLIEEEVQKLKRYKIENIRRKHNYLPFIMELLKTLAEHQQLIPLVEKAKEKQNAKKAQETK
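Signal – fluorescence, ex 355 nm, em 460 nm · System – Proteasome-bound UCH37 · Input – 0.15 nM proteasome as dispensed · Timing – 30 min preincubation with enzyme, 25 min cleavage at room temperature · Read-out basis – percent inhibition of cleavage signal versus uninhibited and no-proteasome wells · Medium – Tris-HCl pH 7.4 with ATP-MgCl2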
RanGTP-Impb inh: disruptors of Ran-importin-beta complex formation – biochemical, FRET, CFP-Ran, YFP-importin-beta, homogeneous, primary screen; cell-free CFP-Ran/YFP-importin-beta FRET ratio; inhibition, % (no concentration beside the values); 300,000 tested, 1.1% active;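 active = most replicates above 15%; inconclusive = exactly half above 15%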;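 also: 0% = DMSO wells and 100% = Ran loaded with GDP instead of GTP; wells of about 40 µL received 100 nL stock; the first replicate is given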
Calb FLC: affects C. albicans growth with fluconazole; growth inhibition, % (test concentration not listed); C. albicans CaCi-2 (fluconazole-resistant clinical isolate) + fluconazole, Alamar Blue growth, 48 h; 300,000 tested, 0.57% active; AID 1979;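 active = most replicates above 75%; inconclusive = exactly half above 75%; inactive = most below 75%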;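 also: all wells also contain fluconazole at 8 µg/ml as a sub-toxic cotreatment; 0% = median of DMSO wells and 100% = median of geldanamycin control wells; wells of about 8 µL received 7.5 nL stock; the first replicate is given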
Bfl-1 A1 inh: inhibitors of the anti-apoptotic protein A1, read as caspase activation; MEF A1-2A-BIM cells, Caspase-Glo 3/7 luminescence, 3 h; percent of clofoctol response, vehicle zero; caspase activation, % (no concentration beside the values); 330,000 tested, 0.066% active;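 active = over half of replicate activation scores above 10%, or exactly half above 10 with the replicate mean above 10; inconclusive = replicate mean below 10 yet half the replicates above 10; inactive = over half of replicates below 10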;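 also: wells of about 30 µL received 50 nL stock; many hits fall short of the cut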
B2AR ag: human beta-2 adrenergic receptor agonism by FAP; P07550; Am2.2-beta2AR cells, FAP receptor internalization, flow cytometry; reference of the scale not given here; response, % (test concentration not listed); 340,000 tested, 0.43% active;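 active = response above a set limit, near 3 SD of response in nonfluorescent compounds, cut at about 42% in these data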;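 also: stock transfer was 100 nL into about 11 µL; a reference agonist was the positive control; negative values mostly stem from fluorescent compounds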
Target sequence (P07550 whole entry, looked up): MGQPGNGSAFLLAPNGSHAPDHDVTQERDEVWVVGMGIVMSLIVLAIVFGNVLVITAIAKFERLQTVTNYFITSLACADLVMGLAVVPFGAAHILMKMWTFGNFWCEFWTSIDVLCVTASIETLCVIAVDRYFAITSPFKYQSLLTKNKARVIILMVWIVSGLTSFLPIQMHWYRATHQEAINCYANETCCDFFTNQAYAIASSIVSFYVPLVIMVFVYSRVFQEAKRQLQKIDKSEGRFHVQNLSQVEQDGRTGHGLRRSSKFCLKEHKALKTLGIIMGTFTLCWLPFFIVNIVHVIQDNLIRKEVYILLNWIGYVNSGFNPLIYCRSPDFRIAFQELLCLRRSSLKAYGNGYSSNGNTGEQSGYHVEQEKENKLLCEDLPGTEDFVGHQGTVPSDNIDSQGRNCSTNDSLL
T cruzi repl: blocks replication of Trypanosoma cruzi; T. cruzi beta-gal in NIH3T3, luminescence, 90 h; inhibition, % (test concentration not listed); 300,000 tested, 1.4% active; AID 1885;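 active = mean inhibition across valid replicates above about 55%, limit read from the data; inconclusive = mean below that limit but half or more replicates reach it; inactive = mean below it, under half of replicates reach it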;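 also: signal also drops with host cell toxicity which is not excluded here; 0% = plate median of DMSO wells and 100% = zero luminescence signal; higher percent means less beta-gal luminescence so fewer parasites; stock transfer was 50 nL into about 50 µL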
LANA-H2B inh: blocks KSHV LANA binding to histone H2A/H2B | inhibition, % (concentration not given with the values) | Q9QR71 | 320,000 tested, 0.6% active | cell-free LANA-H2A/H2B peptide, fluorescence polarization | AID 2629; in the data active = inhibition mostly above about 10%, no sharp cut-off; inactive = mostly below about 6.7%;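 also: stock transfer was 7.5 nL into about 10 µL; 0% = median of vehicle wells and 100% = median of positive control wells; one replicate is shown; the record names a cut of 25% in any replicate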
Beta cell apopt: blocks beta cell apoptosis; 300,000 tested, 0.8% active; INS-1E cytokine-induced death, ATP luminescence, 48 h; percent of positive-control rescue, neutral wells zero; protection from apoptosis, % (no concentration beside the values);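 active = all replicates at 75% or more, or half of them and the mean; inconclusive = half reach 75% but not the mean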;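 also: 0% = cytokine-treated negative control wells and 100% = positive control rescue; higher means more ATP so stronger rescue from cytokine killing; wells of about 40 µL received 100 nL stock; the first replicate is given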
Active calls of the source: *; ? = inconclusive; . = not tested or not shown.

SMILES	UCH37 DUB inh	RanGTP-Impb inh	Calb FLC	Bfl-1 A1 inh	B2AR ag	T cruzi repl	LANA-H2B inh	Beta cell apopt
Cc1cc(C)cc(N2CC(C(=O)NC3CCCCC3)CC2=O)c1 (configuration not stated)	1.3	2.0	-7	1.0	-2	-4	-1.8	-7
COc1ccc(S(=O)(=O)N2CCOCC2)cc1NC(=O)CSc1nnc(C2CC2)n1C1CC1	-1.1	.	.	0.1	-3	.	4.7	-1
O=C(COc1ccccc1[N+](=O)[O-])Nc1ccc2c(c1)CCC2	2.1	.	.	-1.0	-4	.	1.3	5
COc1ccc(CNC(=O)CSc2n[nH]c(C)c2[N+](=O)[O-])cc1	1.9	-0.3	-9	0.0	2	-8	2.5	-7
CC(=O)Nc1nnc(SCC(=O)NCC2CCCO2)s1 (configuration not stated)	-0.1	0.2	46	-1.0	2	-20	6.4	-8
COc1cc(/C=C/C(=O)O)cc(S(=O)(=O)Nc2cc(C(F)(F)F)ccc2N2CCOCC2)c1OC	3.3	.	.	-0.4	0	.	-2.5	-2
COc1ccccc1C(=O)NCCC(=O)NCC(C)(C)N1CCOCC1	2.2	-1.9	0	-0.9	-6	-7	2.8	-1
CC(C)c1nnc(NC(=O)CSc2nnc(-c3ccco3)o2)s1	2.2	2.6	-3	1.3	-7	-10	3.9	0
COC(=O)c1c(NC(=O)C2CCCO2)sc2c1CCC2 (configuration not stated)	-2.6	5.1	2	0.2	-5	-7	4.5	-22
CC1CC(=O)N(c2ccc(Br)cc2)C(=O)C1	1.0	2.3	-2	0.5	2	5	1.1	-1
Cc1ccc(S(=O)(=O)NCCC(=O)Nc2cc(F)ccc2C)cc1C	2.1	0.0	-6	0.4	9	-4	3.2	-6
CN(C)CCNC(=O)c1[nH]nc2c1CCc1ccccc1-2	3.7	-1.2	-8	-0.2	-6	0	-1.9	-8
CCCNc1c(NS(=O)(=O)c2ccc(Br)cc2)c(=O)oc2ccccc12	0.9	0.7	1	0.7	4	-3	4.0	-4
O=C(Nc1ccc(S(=O)(=O)N2CCc3ccccc3C2)cc1)c1ccccc1	2.7	3.6	21	0.2	-7	8	1.6	3
COc1cc2c(cc1OC)C(C)N(C(=O)c1cc3c(s1)-c1ccccc1OC3)CC2 (configuration not stated)	-161	0.4	8	?	0	9	-1.4	-5
CC(C)(C)NS(=O)(=O)c1ccc(NS(C)(=O)=O)cc1	1.7	-0.2	3	-0.2	23	-2	0.7	-5
O=S(=O)(c1ccc(F)c(F)c1)N1CCCc2ccccc21	6.1	0.4	21	1.1	5	5	-6.4	1
Cc1ccccc1NC(=O)CNC(=O)Cc1cccc2ccccc12	-1.4	-3.8	1	-0.2	12	-7	2.6	-3
CC(C)Cn1c(=S)[nH]c2cc(C(=O)O)ccc2c1=O	0.0	-2.1	-1	1.3	-6	5	-21	2
O=C(NCc1ccccn1)C(=O)NCC1OCCCN1S(=O)(=O)c1ccc(F)cc1 (configuration not stated)	0.6	4.1	7	0.4	1	-16	-5.0	0
O=C(CCc1nc2ccccc2c(=O)[nH]1)Nc1nnc(SCc2ccc(Cl)cc2)s1	-2.9	-0.8	.	0.1	2	24	2.4	-1
O=C(NCCC1CCCCN1S(=O)(=O)c1cccs1)C(=O)Nc1ccccc1 (configuration not stated)	1.5	5.8	-8	-1.2	-18	12	-0.4	.
COc1ccc(NC(=O)C(C)N2C(=O)c3ccccc3C2=O)c(OC)c1 (configuration not stated)	3.2	9.2	6	1.2	5	-15	-0.3	-4
CCOC(=O)Cc1csc(NC(=O)CSc2nnc(C(C)C)n2C)n1	0.6	0.9	0	0.4	-6	9	1.3	0
COC(=O)CN1C(=O)[C@H]2[C@@H](c3ccc(C)o3)N3C(=O)CN(CCO)C(=O)[C@@]3(Cc3ccccc3)[C@H]2C1=O	-0.3	3.4	-17	0.7	-3	-8	0.4	-4

Some of these compounds in order of SMILES length, smallest number first:
SMILES	UCH37 DUB inh	RanGTP-Impb inh	Calb FLC	Bfl-1 A1 inh	B2AR ag	T cruzi repl	LANA-H2B inh	Beta cell apopt
Cc1ccccc1NC(=O)CNC(=O)Cc1cccc2ccccc12	-1.4	-3.8	1	-0.2	12	-7	2.6	-3
Cc1cc(C)cc(N2CC(C(=O)NC3CCCCC3)CC2=O)c1 (configuration not stated)	1.3	2.0	-7	1.0	-2	-4	-1.8	-7
COc1ccccc1C(=O)NCCC(=O)NCC(C)(C)N1CCOCC1	2.2	-1.9	0	-0.9	-6	-7	2.8	-1

(cont.)
SMILES	UCH37 DUB inh	RanGTP-Impb inh	Calb FLC	Bfl-1 A1 inh	B2AR ag	T cruzi repl	LANA-H2B inh	Beta cell apopt
Cc1ccccc1OCC(=O)NNC(=O)c1ccc2c(=O)n3c(nc2c1)CCC3	1.3	0.1	2	-0.3	6	-6	0.8	-4
CCN(CC)C(=O)c1ccccc1NS(=O)(=O)c1cccs1	1.2	4.6	-2	-0.2	8	-7	3.1	-3
CCc1c(C(=O)NNC(=S)NCC(C)C)csc1C	4.1	-3.3	-8	0.5	-2	4	-4.0	3
CC(=O)Nc1ccc(NC(=O)CSc2ccc(-c3ccc4c(c3)OCO4)nn2)cc1	.	1.5	5	-4.4	3	-4	-4.6	7
Cc1nc(NCc2ccccc2)c(C(N)=O)c2c1COC(C)(C)C2	-36	6.4	0	-0.8	6	7	2.5	0
CN(c1ccccc1)S(=O)(=O)c1ccc(C(=O)NCc2ccccn2)cc1	-0.7	-1.0	1	0.3	-1	-8	11	-7
CN(CC(=O)Nc1cccc(F)c1)C(=O)c1cc(S(=O)(=O)N(C)C)ccc1N1CCCC1	0.3	1.4	-8	-0.2	-3	10	1.1	-6
CSc1ccc(Cl)c(C(=O)Nc2ccc(N3CCOCC3)cc2)c1	5.2	-1.5	3	1.7	-2	-1	-2.9	0
CC(=O)Nc1ccc(NC(=O)c2ccccc2Nc2ccccc2)cc1	-6.6	-1.2	4	0.1	-2	0	-1.3	-8
Cc1cc(C)nc(NS(=O)(=O)c2ccc(NC(=O)COc3ccccc3)cc2)n1	1.7	-3.0	79*	-0.9	118*	-19	-7.1	-4
Cc1cc(C)cc(NC(=O)C(C)N2C(=O)c3ccccc3C2=O)c1 (configuration not stated)	4.2	-0.1	-3	0.0	-6	-16	4.2	-1
CCc1ccccc1NC(=O)C(Cc1cccc(OC)c1OC)c1nn[nH]n1 (configuration not stated)	0.3	-2.2	-3	0.3	1	2	1.9	-2
CCc1ccc(OCCCC(=O)Nc2nccs2)cc1	4.0	3.8	13	-0.3	-15	-7	4.3	-5
COc1ccc(Br)cc1/C=N/NC(=O)C[n+]1ccccc1	.	2.4	3	-0.2	-5	-3	4.6	-4
O=C(Nc1ccccc1)Nc1ccc(C(F)(F)F)cn1	3.8	-4.6	-13	0.9	0	-5	-0.3	3
CC(=O)Nc1ccc(S(=O)(=O)N(CCO)Cc2ccccc2)cc1	0.6	-2.0	-3	0.2	-1	1	1.1	-5
CSCCC(=O)N1CC[C@@H](N2CCN(c3ccccc3F)CC2)[C@H](O)C1	2.8	-2.9	-1	-0.1	-4	-9	-3.7	-7
CC1CCN(c2ccc(C(=O)O)cc2N)CC1	-0.6	2.9	6	0.3	-4	-5	4.1	-1
Cc1ccc(S(=O)(=O)NCc2ccccn2)c(C)c1C	0.1	-2.1	17	0.3	5	-10	-1.1	.
CC(c1ccccc1)N(CCC(c1ccccc1)C1CCOC(C)(C)C1)C(=O)c1ccco1 (configuration not stated)	5.0	-2.3	2	0.7	-9	18	0.5	-7
Cc1ccc(NC(=O)CCN2C(=O)c3cccc([N+](=O)[O-])c3C2=O)c(Br)c1	4.8	4.1	3	1.0	-2	-6	2.1	0
CCOc1ccccc1-n1nnnc1SCC(=O)OC	-2.1	1.6	-1	0.2	19	-2	2.4	-7
C=CCNC(=S)NC(=O)c1oc2ccccc2c1C	-1.9	-1.8	56	0.2	-3	-7	-3.6	3
CC1CN(/C=C/C(=O)C(F)(F)F)CC(C)O1 (configuration not stated)	5.7	2.7	-16	-0.1	-2	-12	6.6	0
CCOC(=O)/C=C1\SCC(=O)N1CC(=O)NC1CCCCC1	0.3	0.6	-6	0.8	-4	-16	2.7	6
SMILES	UCH37 DUB inh	RanGTP-Impb inh	Calb FLC	Bfl-1 A1 inh	B2AR ag	T cruzi repl	LANA-H2B inh	Beta cell apopt
NC(=S)N/N=C1\CC(n2nnnc2-c2ccccc2)C2COC1O2 (configuration not stated)	.	-2.3	1	0.6	4	-2	3.8	-6
Cc1cc(N2CC(C(=O)NCc3cccnc3)CC2=O)ccc1C(C)C (configuration not stated)	1.7	-1.4	-1	0.5	0	-7	-5.0	1
Fc1ccccc1N1CCN(c2nnnn2-c2ccccc2)CC1	-0.6	-0.3	19	0.5	4	-1	-1.5	6
CCc1cc2c(=O)c(-c3nc4ccccc4n3C)c(C)oc2cc1OC(C)=O	0.1	3.2	.	0.6	-8	4	-8.3	-3
O=C1CC2(CCN(C(=O)COc3ccc(Cl)cc3)CC2)Oc2ccccc21	-27	-2.8	23	0.8	-9	7	-0.4	.
COc1ccc(CC(=O)NNC(=O)CN(C)S(=O)(=O)c2ccc(Cl)cc2)cc1OC	-0.3	.	.	0.1	0	.	3.6	-4
CCCn1nc(C(=O)NCc2ccc3c(c2)OCO3)c2ccccc2c1=O	1.6	3.6	0	-0.5	5	12	0.1	-10
CCN1CCN(c2nc3c(C)cccn3c(=O)c2/C=C(\C#N)C(=O)NCCCOC)CC1	-20	-42	6	-0.2	0	6	-1.1	-3
C=CCn1c(SCC(=O)c2cc(C)n(Cc3cccs3)c2C)nnc1-c1ccncc1	6.2	-2.0	-3	0.2	-6	-2	-0.6	-2
Cc1cccc(NS(=O)(=O)c2ccc(-n3cccn3)cc2)c1C	0.3	3.9	-32	2.0	-13	19	3.3	8
CC(Sc1nc2ccccc2[nH]1)C(=O)Nc1ccccc1F (configuration not stated)	2.4	-1.4	?	0.5	-19	-4	13*	0
CC[C@]12c3[nH]c4ccccc4c3CCN1C(=O)C(CC(=O)NCCCN(C)C)C[C@@H]2C(=O)N1CCN(C(=O)c2ccco2)CC1 (some centres not stated)	.	.	.	-0.1	1	.	-330	4
O=C(CN1CCCCC1)Nc1ccccc1Cl	4.7	-2.3	-6	0.3	-8	-7	-2.5	-2
O=C(ON=C1CCN(S(=O)(=O)c2ccccc2)CC1)c1ccc(F)cc1	4.0	-18	0	0.1	-2	-6	1.4	-8
CCCN1C(=O)C2(C(C(=O)c3ccc(C)o3)=C(O)C(=O)N2CCCN2CCOCC2)c2ccccc21 (configuration not stated)	21*	3.0	?	-0.2	7	-4	-0.5	-7
CCOC(=O)/C(=N\Nc1cc(Cl)ccc1Cl)N1CCN(C)CC1	.	2.3	0	-0.9	2	42	0.3	4
CCCCSC(=S)N(C)C1CCS(=O)(=O)C1 (configuration not stated)	2.5	1.5	-10	0.2	-12	4	5.1	6
O=C1CCC(C(=O)NCCN2C(=O)S/C(=C\c3cccnc3)C2=O)=NN1	4.5	0.7	39	0.6	1	-12	-3.8	-4
CCn1cnc2sc(C(=O)Nc3ccccc3OC)c(C)c2c1=O	-34	1.7	6	0.1	-23	16	4.2	9
COc1cc(Nc2nc(SCC#N)nc3ccccc23)cc(OC)c1OC	3.7	2.2	-27	1.0	-3	4	2.8	-1

High-throughput results deposited in PubChem by several laboratories.
